PrP 5UTR inh – suppresses PrP 5' UTR mRNA reporter expression. 340,000 tested, 0.35% active. cell-based PrP 5' UTR mRNA reporter, plate reader. inhibition, % (concentration not given with the values);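 active = every replicate at 50% or more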;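 note: 0 = median of the neutral control wells; tested in H4 reporter cells; numbers are from one replicate; inactives centre near -14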
RN4220 kill – kills Staphylococcus aureus RN4220. S. aureus RN4220 growth, OD600, 16 h. inhibition, % (no concentration beside the values). 330,000 tested, 0.33% active;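 active = z-score of -3 or lower and OD600 up to 0.18 on both plates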;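 note: plate controls were untreated cells for no effect and reference antibiotic for full effect; stock transfer was 100 nL into about 80 µL; one replicate is shown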
Bead autofluor – flagged as autofluorescent in microsphere protease counterscreen; compound autofluorescence counterscreen, microsphere flow cytometry; stronger effect = higher value; fluorescence intensity (no concentration beside the values); 360,000 tested, 3.1% active; AID 624483;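 active = at least 3 SD above the mean of all compounds, about 16000 in these data; inconclusive = too few beads counted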;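 note: 100 nL of 1 mM stock went into each well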
ugtP null kill – compounds lethal to S. aureus RN4220 ugtP deletion mutant; 330,000 tested, 0.54% active; OD600 growth, 16 h; some inactives read as strong as hits; growth inhibition, % (concentration not given with the values);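 active = z-score under -3 and OD600 up to 0.15 on both plates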;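 note: plate controls were untreated wells for no effect and antibiotic for full effect; wells of about 80 µL received 100 nL stock; the first replicate is given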
BJeLR lethal – kills HRASV12-expressing BJeLR cells; BJeLR (HRASV12) viability, CellTiter-Glo ATP luminescence, 48 h; reference of the scale not given here; inhibition, % (no concentration beside the values); 300,000 tested, 0.17% active;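 active = replicate mean above 50%; inconclusive = above 50% but judged a plate artefact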;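 note: 50 nL library stock added to about 25 µL; numbers are from one replicate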
Mtb hypoxia rep – Mtb hypoxia fluorescent reporter inhibition; fluorescence inhibition, % (concentration not given with the values); M. tuberculosis hypoxia-regulated fluorescent reporter, fluorescence; 300,000 tested, 0.1% active; AID 1159583;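 active = 35 to 45% if threefold the growth effect, above 45% if 1.5-fold the growth effect; inactive = the rest, general growth blockers included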;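 note: wells of about 50 µL received 100 nL stock; 0% = vehicle wells and 100% = reference inhibitor wells; whole bacteria with a GFP reporter of the hypoxia response; strong numbers were not always called active; many hits fall short of the cut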
Mtb hypoxia rep growth – second read-out of Mtb hypoxia rep, no call of its own (marks repeat the call); growth inhibition, %; measured here: M. tuberculosis growth (absorbance);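 0% = vehicle and 100% = reference antibiotic; read after six days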
* = called active by the depositor; & = joins results of further samples.

The first two compounds, ahead of the listing:
For FC(F)(F)c1cc(-c2cccs2)nc2ncnn12 the results were PrP 5UTR inh -14.6, RN4220 kill -3.6, Bead autofluor 5408, ugtP null kill -1.6, BJeLR lethal 2.3, Mtb hypoxia rep 1.4 and Mtb hypoxia rep growth -5.4.
O=C(CNC(=O)C1CCCCC1)Nc1ccc(F)c(Cl)c1 was read as PrP 5UTR inh -14.8, RN4220 kill 0.0, Bead autofluor 4169, ugtP null kill 4.6, BJeLR lethal 2.7, Mtb hypoxia rep 10.5 and Mtb hypoxia rep growth 8.5.

The list itself, from the start:
For FC(F)(F)c1cc(-c2cccs2)nc2ncnn12 the results were PrP 5UTR inh -14.6, RN4220 kill -3.6, Bead autofluor 5408, ugtP null kill -1.6, BJeLR lethal 2.3, Mtb hypoxia rep 1.4 and Mtb hypoxia rep growth -5.4.
O=C(CNC(=O)C1CCCCC1)Nc1ccc(F)c(Cl)c1 was read as PrP 5UTR inh -14.8, RN4220 kill 0.0, Bead autofluor 4169, ugtP null kill 4.6, BJeLR lethal 2.7, Mtb hypoxia rep 10.5 and Mtb hypoxia rep growth 8.5.
c1ccc(CNc2nc3ccccc3n2CCN2CCOCC2)nc1 was read as PrP 5UTR inh -17.1, RN4220 kill 2.8, Bead autofluor 12476, ugtP null kill 3.0, BJeLR lethal -4.9, Mtb hypoxia rep 0.3 and Mtb hypoxia rep growth 6.5.
`COc1cccc(CN2CC(C(=O)N(C)Cc3ccnc4ccccc34)CCC2=O)c1` (stereo not given) gave PrP 5UTR inh -7.8, RN4220 kill 3.1, Bead autofluor 6506, ugtP null kill 4.0, BJeLR lethal 8.1, Mtb hypoxia rep 3.8 and Mtb hypoxia rep growth 4.3.
Screening COC(=O)[C@@H]1C[C@@]2(O)[C@H](O)[C@H](O)[C@H](O)C[C@H]2N1Cc1cc(OC)cc(OC)c1 returned PrP 5UTR inh -18.0, Bead autofluor 4165 and BJeLR lethal 9.5.
`Cc1ccc(S(=O)(=O)CCC(=O)OCC(=O)NCc2ccccc2)cc1` gave PrP 5UTR inh -6.8, RN4220 kill 2.0, ugtP null kill 1.5, BJeLR lethal 3.3, Mtb hypoxia rep -6.7 and Mtb hypoxia rep growth -8.4.
OCCC1CN(Cc2cnc(N3CCCC3)s2)CCN1C1CCCC1 (stereo not given) was read as PrP 5UTR inh -9.8, RN4220 kill 6.5, Bead autofluor 4466, ugtP null kill 2.9, BJeLR lethal -12.1, Mtb hypoxia rep 8.7 and Mtb hypoxia rep growth 3.9.
CCOc1cc(C2C(C#N)=C(N)Oc3cc(N)ccc32)ccc1O (stereo not given) was read as PrP 5UTR inh -8.1, RN4220 kill -2.6, Bead autofluor 4002, ugtP null kill 4.3, BJeLR lethal 5.4, Mtb hypoxia rep 3.6 and Mtb hypoxia rep growth 7.5.
For COc1cc2c(cc1NC(=O)c1cc(-c3ccncc3)nc3ccccc13)oc1ccccc12 the results were PrP 5UTR inh -21.8, RN4220 kill 2.4, Bead autofluor 2209, ugtP null kill -18.6 and BJeLR lethal 9.5.
`Cc1cccc(C)c1NC(=O)c1ccc(OCc2c(C)noc2C)cc1` gave PrP 5UTR inh -20.4, RN4220 kill 7.2, Bead autofluor 3198, ugtP null kill 2.7, Mtb hypoxia rep 1.6 and Mtb hypoxia rep growth 3.0.
COc1cccc(C(=O)N/N=C/c2ccc(OC)c(COc3ccccc3C(N)=O)c2)c1 was read as PrP 5UTR inh -14.2, Bead autofluor 4225 and BJeLR lethal -2.2.
Screening CC1CC1C(=O)NCCc1ccc(Cl)cc1 (stereo not given) returned PrP 5UTR inh -29.6, RN4220 kill 1.6, Bead autofluor 4233, ugtP null kill 5.8, BJeLR lethal -4.8, Mtb hypoxia rep 25.3 and Mtb hypoxia rep growth 23.3.
`COCCNC(=O)CSc1nc(-c2ccccc2)c(-c2ccccc2)o1` gave PrP 5UTR inh -15.0, RN4220 kill -2.2, Bead autofluor 4689, ugtP null kill 1.4, BJeLR lethal 3.6, Mtb hypoxia rep 3.3 and Mtb hypoxia rep growth -5.8.
`CCCCN(C)CCN1C(=O)C2C(C(=O)Nc3ccc(OC)cc3)C3C=CC2(O3)C1C(=O)NC1CCCCC1` (stereo not given) gave PrP 5UTR inh -3.8, RN4220 kill 0.8, Bead autofluor 4182, ugtP null kill 1.9, BJeLR lethal 2.6, Mtb hypoxia rep -1.8 and Mtb hypoxia rep growth -2.3.
For N#CC1=C(N)N2C(=C(C#N)C13CCCCC3)SC1CCCCC12O (stereo not given) the results were PrP 5UTR inh -14.6, RN4220 kill 9.1, Bead autofluor 22232*, ugtP null kill -5.4, BJeLR lethal 9.3, Mtb hypoxia rep 9.0 and Mtb hypoxia rep growth 16.7.
O=C(O)C1CSC2c3ccccc3C(=O)N12 (stereo not given) was read as PrP 5UTR inh -12.2, RN4220 kill 2.5, Bead autofluor 7803, ugtP null kill -0.3, BJeLR lethal -5.1, Mtb hypoxia rep 16.1 and Mtb hypoxia rep growth 5.6.
`CNC(=O)C(C)c1ncc(C(F)(F)F)cc1Cl` (stereo not given) gave PrP 5UTR inh -10.2, RN4220 kill -0.7, Bead autofluor 4798, ugtP null kill -0.5, BJeLR lethal 1.4, Mtb hypoxia rep -9.1 and Mtb hypoxia rep growth 16.9.
COc1ccc(N(C(=O)CNC(=O)c2ccco2)C(C(=O)NC2CCCCC2)c2ccco2)cc1 (stereo not given) was read as PrP 5UTR inh -9.6, RN4220 kill -0.8, Bead autofluor 3618, ugtP null kill 2.4 and BJeLR lethal -1.6.
For O=c1ccc(-c2ccc(S(=O)(=O)NCC3CCN(Cc4cccc(F)c4)CC3)s2)n[nH]1 the results were PrP 5UTR inh 8.9, RN4220 kill 0.7, Bead autofluor 4998, ugtP null kill 5.4, BJeLR lethal -1.1, Mtb hypoxia rep 2.4 and Mtb hypoxia rep growth -3.6.
c1ccc(CSc2ccc(-c3ccccn3)nn2)nc1 was read as PrP 5UTR inh -59.7, RN4220 kill 2.2, Bead autofluor 4380, ugtP null kill -3.4, BJeLR lethal -35.7, Mtb hypoxia rep 10.8 and Mtb hypoxia rep growth 0.2.
`Cc1ccc(NC(=O)c2ccc(S(=O)(=O)N3CCC(C)CC3)cc2)nc1` gave PrP 5UTR inh -34.7, RN4220 kill 2.4, Bead autofluor inconclusive, ugtP null kill 8.5, BJeLR lethal -2.4, Mtb hypoxia rep 6.2 and Mtb hypoxia rep growth 5.9.
Screening COc1ccc(N2C(=O)NC(=O)/C(=C\c3cn(CC(=O)N4CCOCC4)c4ccccc34)C2=O)c(OC)c1 returned PrP 5UTR inh -0.7, RN4220 kill 0.0, Bead autofluor 6451, ugtP null kill 4.0 and BJeLR lethal -5.9.
For Fc1cccc(NC(=S)NNc2c3ccccc3nc3ccccc23)c1 the results were PrP 5UTR inh -9.5, RN4220 kill -5.4, Bead autofluor 3520, ugtP null kill 5.4, BJeLR lethal 7.0, Mtb hypoxia rep 3.9 and Mtb hypoxia rep growth 3.7.
For Cn1c(=O)n(C)c2cc(/C=C3/NC(=O)N(Cc4ccccc4)C3=O)ccc21 the results were PrP 5UTR inh 0.0, RN4220 kill 7.9, Bead autofluor 20142*, ugtP null kill 8.4, BJeLR lethal -17.0, Mtb hypoxia rep -6.2 and Mtb hypoxia rep growth 1.4.
COC(=O)c1ccc(OC)c(CSc2nnc(-c3ccc(C)cc3)o2)c1 was read as PrP 5UTR inh -11.9, RN4220 kill 1.5, Bead autofluor 4299, ugtP null kill 8.2, Mtb hypoxia rep -5.3 and Mtb hypoxia rep growth 0.2.
Cc1cc(C(=O)NCc2cccnc2)n(-c2ccccc2)n1 was read as PrP 5UTR inh 3.5, RN4220 kill 3.9, Bead autofluor 4375, ugtP null kill 7.2, BJeLR lethal -2.7, Mtb hypoxia rep 0.8 and Mtb hypoxia rep growth 3.2.
Screening COc1ccccc1OC(=O)C1CC(=O)N(c2ccc(Cl)cc2)C1 (stereo not given) returned PrP 5UTR inh -1.8, RN4220 kill 10.2, Bead autofluor 11121, ugtP null kill 1.8, BJeLR lethal 0.6, Mtb hypoxia rep 10.8 and Mtb hypoxia rep growth 3.2.
CON=Cc1ccc(Oc2ccc([N+](=O)[O-])cc2[N+](=O)[O-])c(OC)c1 was read as RN4220 kill -3.3, ugtP null kill -16.4, Mtb hypoxia rep -3.6 and Mtb hypoxia rep growth 0.1.
COc1ccc(CN2C(=O)Cc3c2nc(N)c2c(N)nc(N4CCOCC4)c(C#N)c32)cc1 was read as PrP 5UTR inh -33.1, RN4220 kill 5.2, Bead autofluor 4234, ugtP null kill -7.3, BJeLR lethal 8.1, Mtb hypoxia rep -4.7 and Mtb hypoxia rep growth -1.2.
For CNC(=O)COC(=O)c1ccc(NS(=O)(=O)c2ccc3c(c2)OCCO3)cc1 the results were PrP 5UTR inh 1.9, RN4220 kill 3.4, Bead autofluor 3442, ugtP null kill 7.7, BJeLR lethal -7.8, Mtb hypoxia rep -2.6 and Mtb hypoxia rep growth -4.6.
Cc1ccccc1N1CC(C(=O)Nc2nnc(SCc3cccnc3)s2)CC1=O (stereo not given) was read as PrP 5UTR inh -16.0, RN4220 kill 2.3, Bead autofluor 5099, ugtP null kill 5.9, BJeLR lethal -7.8, Mtb hypoxia rep -2.2 and Mtb hypoxia rep growth 4.4.
COc1ccc(C(=O)Nc2ccc(N3CCN(C(=O)c4cccs4)CC3)cc2)cc1Br was read as PrP 5UTR inh -25.4, RN4220 kill 5.8, Bead autofluor 5073, ugtP null kill 15.0, BJeLR lethal 11.4, Mtb hypoxia rep 1.3 and Mtb hypoxia rep growth -4.1.
Cc1ccc(C)c(S(=O)(=O)N2CCCCC2CCNC(=O)C(=O)NCc2ccccn2)c1 (stereo not given) was read as PrP 5UTR inh -19.4, RN4220 kill -3.9, Bead autofluor 4882, ugtP null kill -3.2, BJeLR lethal -13.4, Mtb hypoxia rep -9.0 and Mtb hypoxia rep growth 4.9.
N#Cc1ccc(N2C(=O)[C@@H]3C(C(=O)C(c4ccccc4)c4ccccc4)=NN[C@@H]3C2=O)cc1 was read as PrP 5UTR inh -12.0, RN4220 kill 3.5, Bead autofluor 2028, ugtP null kill 3.9, BJeLR lethal -7.7, Mtb hypoxia rep -3.2 and Mtb hypoxia rep growth 4.8.
Screening CSc1ccccc1-n1nnnc1SCC(=O)Nc1cc(C)ccc1C returned PrP 5UTR inh -17.6, RN4220 kill 3.2, Bead autofluor inconclusive, ugtP null kill -0.6, BJeLR lethal -5.7, Mtb hypoxia rep 8.7 and Mtb hypoxia rep growth 11.1.
Screening CCOC(=O)c1c(NC(=O)Cn2nnc3ccccc32)sc2c1CCC(C)C2 (stereo not given) returned PrP 5UTR inh -13.1, RN4220 kill -4.8, Bead autofluor 4614, ugtP null kill -6.0 and BJeLR lethal 1.4.
`Cc1ccccc1C(=O)NCC(=O)Nc1ccccc1C(F)(F)F` gave PrP 5UTR inh -4.2, RN4220 kill 2.6, Bead autofluor 4861, ugtP null kill 5.6, BJeLR lethal 5.2, Mtb hypoxia rep 13.4 and Mtb hypoxia rep growth 12.6.
Screening CN1CCN(C(=O)C2=CC(c3ccc(C(F)(F)F)cc3)CC(OCCCCO)O2)CC1 (stereo not given) returned RN4220 kill 4.0&6.1, ugtP null kill 1.0&-7.5, Mtb hypoxia rep -6.0&7.8 and Mtb hypoxia rep growth -4.5&8.1.
`CCOc1ccc(-c2cc(C(=O)NN=Cc3cccnc3)c3ccccc3n2)cc1` gave RN4220 kill -0.6, ugtP null kill 6.1, Mtb hypoxia rep 6.2 and Mtb hypoxia rep growth -0.6.
Cc1ccc(-n2nnnc2SCC(=O)Nc2ccc3c(c2)COC3=O)cc1C was read as PrP 5UTR inh -13.1, RN4220 kill 10.5, Bead autofluor 2852, ugtP null kill 9.2 and BJeLR lethal 3.1.
For Cc1nn(Cc2ccc(Cl)cc2)c(C)c1NC(=O)c1noc2c1CCCCC2 the results were PrP 5UTR inh -13.5, RN4220 kill 0.2, Bead autofluor 9752, ugtP null kill -4.3, BJeLR lethal -0.1, Mtb hypoxia rep 4.8 and Mtb hypoxia rep growth 3.2.
Screening CC(=O)Nc1ccc(NC(=O)COC(=O)c2ccc(C)s2)cc1 returned PrP 5UTR inh -1.7, RN4220 kill 5.3, Bead autofluor 3494, ugtP null kill 10.7 and BJeLR lethal -6.4.
For CCOC(=O)C1CCCN(C(=O)CC(C)c2ccccc2)C1 (stereo not given) the results were PrP 5UTR inh -52.8, RN4220 kill 4.0, Bead autofluor 8704, ugtP null kill 3.6, BJeLR lethal 2.8, Mtb hypoxia rep 8.2 and Mtb hypoxia rep growth -9.1.

Assay outcomes as filed in PubChem BioAssay.
